Source: PubChem
NPYLR7 agonist = mosquito NPYLR7 agonism; AID 1259423; HEK293T NPYLR7/Galpha15, GCaMP6s calcium fluorescence; hit rate 0.15% among 270,000; activation, % at 10 µM; in the data active = activation above about 40%;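 also: 0% = vehicle and 100% = reference agonist at the receptor; some compounds past the cut are filed as inactive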
NPYLR7 agonist max-min = also measured in NPYLR7 agonist; calls as there; activation, %; measured here: Max-Min RFU normalised activation; some inactives read as strong as hits;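 span of the calcium signal over five minutes; 0% = vehicle and 100% = native peptide agonist; compound fluorescence can raise it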
* marks the source's active call; other numbers are inactive results.

SMILES	NPYLR7 agonist	NPYLR7 agonist max-min
CCOc1ccc2cc(C(=O)C(C#N)=C(O)c3ccsc3)[nH]c2c1	-1	-5
O=C1NC(CC(=O)N2CCCCC2)C(=O)Nc2ccccc21 (centres undefined)	-3	-3
Cc1ccc(Cn2nccc2NC(=O)Cc2c(C)noc2C)o1	9	12
Cc1c(C(=O)Nc2cccc(Oc3ccccc3)c2)sc(=O)n1Cc1cccc(F)c1	17	8
Cc1cccc(OCCC(=O)Nc2cccc(C#N)c2)c1	-6	-6
NC(=O)c1ccc(C(F)(F)F)n(CC(O)CN2CCOCC2)c1=O (centres undefined)	2	-3
FC(F)(F)c1cc(-c2ccccc2)nc(N2CCCC2)n1	-2	0
Cc1ccc(C)c2sc(N(CCN3CCOCC3)C(=O)c3ccno3)nc12	0	17
Cc1ccc(-c2nc3ccc(C)cn3c2NCc2ccccc2)cc1	5	10
COc1ccc(/C=C/C(=O)N2CCCC(CCC(=O)NC3CC3)C2)cc1 (centres undefined)	-1	-3
Cc1ccccc1-c1nc(OCC(C)C)nn1-c1ccc(NC(=O)c2cccc([N+](=O)[O-])c2)cc1	-1	9
Cc1ccc(C(=O)Cn2cnc(-c3ccc(F)cc3)cc2=O)c(C)c1	-14	-18
COc1cc(/C=C2\C(=O)N(c3cccc(Cl)c3)N=C2C)ccc1OC(C)=O	-11	-5
CCCCc1ccc(C(=O)Oc2ccc(-c3nc4ccccn4c3NC(C)(C)CC(C)(C)C)cc2OC)cc1	12	16
COc1ccccc1-c1nccn1C(C)c1cnn(-c2ccccc2)c1 (centres undefined)	7	4
Cn1c(SCC(=O)NCc2ccccc2)nc2c(-c3ccccc3)c[nH]c2c1=O	-3	-6
CCOc1ncccc1C(=O)Nc1c(C)nc2ccc(C)cn2c1=O	21	9
CCNC(=O)NC(=O)CSc1nnc(C)n1-c1ccc(C)cc1	-7	13
CNC(=O)Cn1c(CO)cnc1SCCc1ccccc1	4	3
Cc1cn2c3c(=O)n(CC(C)C)c(=O)n(C)c3nc2n1-c1ccccc1F	-3	20
CN(Cc1ccccc1)C(=O)C1(C)CCN1C(=O)Cc1ccsc1 (centres undefined)	6	3
Cn1cccc1C1CC(c2ccccc2Cl)=NN1C(=O)CN1CCOCC1 (centres undefined)	11	23
COC(=O)CC1C(=O)NCCN1C(=O)c1ccc([N+](=O)[O-])cc1 (centres undefined)	3	0
Cc1cn2c3c(=O)n(CCCO)c(=O)n(C)c3nc2n1-c1ccc(F)cc1	5	3
COc1cccc(NC(=O)c2[nH]c3c(c2C)C(=O)CCC3)c1	3	2
O=C(Cn1nnnc1CN1CCOCC1)N1CCCCC1CCn1cccn1 (centres undefined)	-4	-4
CCC(O)(CC)C(=O)NN(C(=O)CN1CCN(C)CC1)c1ccc(C)cc1	8	8
O=C(c1ccco1)N1N=C(c2ccc3c(c2)OCO3)CC1c1ccc2nccnc2c1 (centres undefined)	1	20
CN(Cc1ccco1)C(=O)C(C1CCCC1)N1CCN(C(=O)c2ccc(Cl)cc2Cl)CC1 (centres undefined)	-3	37
CCNC(=O)C1(C)CCN(Cc2ccc3c(c2)OCO3)C1 (centres undefined)	2	3
N#Cc1ccc(CSc2nnc(NC(=O)CCC3CCCC3)s2)cc1	2	1
Fc1ccc(Cc2nsc(N3CCCNCC3)n2)cc1	10	13
COc1ccc(N2CCN(c3nc4sccn4c3[N+](=O)[O-])CC2)cc1	6	10
O=C(CN1C(=O)c2ccc([N+](=O)[O-])cc2C1=O)Nc1ccccc1O	2	6
COCCOCC(=O)N1CCCN(Cc2cc(=O)c(OCc3ccc(C(C)(C)C)cc3)co2)CC1	-5	-3
Fc1cc(Cl)ccc1NC1=NCCCCC1	4	1
O=C(CNC(c1cccs1)C1CCCCC1)Nc1cnccn1 (centres undefined)	12	3
COc1ccc(C2=NOC(CN(Cc3ccccc3Cl)CC(O)COCc3ccco3)C2)cc1 (centres undefined)	-2	5
CC(C)(C)CN1CCNC(=O)C1CC(=O)N1CCC(C(=O)N2CCOCC2)CC1 (centres undefined)	1	-2
CN(Cc1ccccc1N1CCCCC1)C(C(N)=O)c1ccc(F)cc1 (centres undefined)	8	3
CC(C)Oc1cccc(C(O)CNC(=O)c2ccc(N(C)C)cc2)c1 (centres undefined)	0	-1
COCCNC(=O)C1(C)Cc2c(-c3cccc(NC(C)=O)c3)ccnc2O1 (centres undefined)	0	13
CCOC(=O)CN(C(=O)COc1ccccc1)[C@H]1[C@H](O)[C@@H]2O[C@H]1c1ccccc12	5	7
CN1CCC(Sc2ccc3ccccc3c2)C1=O (centres undefined)	4	2
COc1ccc(S(=O)(=O)c2cnc(SCC(=O)Nc3cccc(C)c3)[nH]c2=O)cc1Cl	-10	-13
Cc1oc(-c2ccccc2)nc1CSc1nc(-c2ccncc2)cc(=O)[nH]1	-4	-10
COc1ccccc1CN(CCN1CCOCC1)Cc1ccc(C(O)(c2cccc(F)c2)c2cccc(F)c2)o1	-10	-7
CCCNC(=O)CN(CCC)C(=O)Cn1cnc2c(oc3ccccc32)c1=O	0	15
COCCNC(=O)Cn1cnc2c(nnn2-c2ccc(Cl)cc2)c1=O	-3	-8
COC(=O)[C@@H]1C[C@H](NC(=O)c2cc3ccccc3n2C)CN1C	0	4
(more compounds)
SMILES	NPYLR7 agonist	NPYLR7 agonist max-min
CCN(CC)C(=O)Oc1ccc2c(ccn2Cc2cccc(C#N)c2)c1-c1cc(C)cc(C)c1	33	27
CC(C)c1cc(C(=O)N2C[C@@H]3[C@H](C2)[C@H]2CC[C@@H]3O2)nc2ncnn12	-1	-4
CCOCCCN(CC(=O)c1c(C)c(C(=O)OCC)n(CC)c1C)C(=O)c1cccc(Br)c1	15	15
CCOC(=O)c1cc(-c2ccc(N3CCN(C(=O)c4cccnc4SCC)CC3)cc2)n(-c2ccccn2)n1	21	12
CCC(C)C(=O)Nc1nc2c(s1)C(=O)CC(C)(C)C2 (centres undefined)	1	0
Cc1csc(CNC(=O)c2sc3ncnc(N4CCCCCCC4)c3c2C)n1	34	17
COc1ccc2c(c1)SC(C)C(=O)N2Cc1ccc2oc3ccccc3c2c1 (centres undefined)	5	5
O=C(C(c1ccccc1)C1CCCCC1)N1CCC(c2ccc(F)cc2)CC1 (centres undefined)	-3	-12
O=C(CC1Cn2ncc(-c3ccccc3)c2NC1=O)NC1CCCCC1 (centres undefined)	-7	-7
O=C(CSc1ccc2nnc(-c3ccccn3)n2n1)N1CCCC1	-1	-3

Structural class: the entries above with two or more sulfur atoms.
SMILES	NPYLR7 agonist	NPYLR7 agonist max-min
N#Cc1ccc(CSc2nnc(NC(=O)CCC3CCCC3)s2)cc1	2	1
COc1ccc(S(=O)(=O)c2cnc(SCC(=O)Nc3cccc(C)c3)[nH]c2=O)cc1Cl	-10	-13
Cc1csc(CNC(=O)c2sc3ncnc(N4CCCCCCC4)c3c2C)n1	34	17

Part of the list above, with two lines to a compound:
Results follow in this order: NPYLR7 agonist | NPYLR7 agonist max-min
Cc1csc(CNC(=O)c2sc3ncnc(N4CCCCCCC4)c3c2C)n1
 : 34 | 17
CCN(CC)C(=O)Oc1ccc2c(ccn2Cc2cccc(C#N)c2)c1-c1cc(C)cc(C)c1
 : 33 | 27
O=C(CSc1ccc2nnc(-c3ccccn3)n2n1)N1CCCC1
 : -1 | -3
O=C(CC1Cn2ncc(-c3ccccc3)c2NC1=O)NC1CCCCC1 (centres undefined)
 : -7 | -7
CCC(C)C(=O)Nc1nc2c(s1)C(=O)CC(C)(C)C2 (centres undefined)
 : 1 | 0
COc1ccc2c(c1)SC(C)C(=O)N2Cc1ccc2oc3ccccc3c2c1 (centres undefined)
 : 5 | 5

(list continues)
SMILES	NPYLR7 agonist	NPYLR7 agonist max-min
O=C(CN1CCCc2sccc2C1=O)Nc1ccc2nc(C3CC3)oc2c1	0	-1
Cc1ccc(-n2nnnc2CNS(=O)(=O)N(C)C)cc1C	-3	-5
Cn1ccsc1=NC(=O)CCc1ccc(-c2ccccc2)[nH]1	5	1
CN(c1ccccc1Oc1ccccc1)S(=O)(=O)c1cnc[nH]1	11	9
CCOC(=O)c1ccccc1NC(=O)CSc1nnc(C)c2cnn(-c3ccc(F)cc3)c12	-12	-18
O=C1C[C@H]2CC[C@@H](CN1)N2C(=O)Cc1ccc(O)c(F)c1	5	2
CCSCCNC(=O)c1c(C)noc1-c1ccccc1OC	3	1
CN(C)CCC(=O)NC1(C)CS(=O)(=O)CC1S(=O)(=O)O (centres undefined)	-2	-7
CC1(C)COC(c2ccccc2Cl)CN1Cn1nc(-c2ccc(F)cc2)oc1=O (centres undefined)	-2	70
O=C(Nc1nn[nH]n1)C1CC1c1ccc(OCc2ccccc2)cc1 (centres undefined)	5	3
Cc1ccc(CNC(=O)c2c(C)noc2-c2ccncc2)o1	-5	7
COc1cccnc1N(C)S(=O)(=O)c1cccc2ncccc12	0	-1
CC(C(=O)O)N1C(=O)/C(=C/c2ccccc2)SC1=S (centres undefined)	-5	-7
O=C(/C=C/c1cn(S(=O)(=O)c2ccc(Cl)s2)c2ccccc12)N1CCC2(CC1)OCCO2	3	2
COc1ccc(C(=O)N2C(C(=O)NCC3CCCO3)COC23CCN(C(=O)c2ccccc2F)CC3)cc1 (centres undefined)	2	15
O=C(CNc1ccc(F)cc1OCCO)Nc1cc(Cl)ccc1F	6	5
CCCCCCCCCc1c(O)nc(SCCN(C)C)[nH]c1=O	6	11
COC(=O)c1ccc(COC(CN2CCN(C(=O)c3ccccn3)CC2)c2cccc(OC)c2)cc1 (centres undefined)	-8	0
Cc1cc(Br)c2c(c1N)C(=O)c1ccccc1C2=O	0	10
Cn1nnnc1SCC(=O)Nc1ccc(S(N)(=O)=O)cc1	8	1
O=C(NCCC(=O)N1CCCC1C1CCCCC1=O)OCC(F)(F)F (centres undefined)	-2	-5
CC1(C)CNC(=O)c2nc(-c3ncc[nH]3)[nH]c2C1	-5	-8
Cc1ccc(C)c(OCC(O)CN2C(=O)C3CN(C(N)=O)CCN3C2=O)c1C (centres undefined)	12	10
Cc1cc(C)c(OCC(O)CNC(C)(C)CC(C)(C)C)c(C)c1 (centres undefined)	-14	-23
C=CCNC(=O)c1c(NC(=O)c2cc(OC)c(OC)c(OC)c2)sc2c1CCCC2	1	-2
N#Cc1c(N2CCCC2)nn2cc(C(=O)c3ccccc3O)cnc12	13	13
Cc1ccc(C(=O)NNC(=O)c2ccoc2C)s1	0	-3
O=c1cc(-c2cccs2)[nH]c(=S)[nH]1	-5	-5
O=C1COCc2ccc(-c3ccoc3)cc2N1CCN1CCOCC1	10	7
COc1cc(C=C2C(=O)NC(=S)NC2=O)ccc1OCC(=O)O	-15	-19
CC(C)CN(C1CCS(=O)(=O)C1)S(=O)(=O)c1cn(C)c(=O)n(C)c1=O (centres undefined)	2	0
O=C(NCC1Cc2cc(F)ccc2O1)c1cccc([N+](=O)[O-])c1 (centres undefined)	17	24
CC(=O)c1cccc(NC(=O)N2CCc3ccccc3C2c2ccccc2Cl)c1 (centres undefined)	-3	3
Cc1cc(O)c(C(Cc2ccccc2)c2c(O)cc(C)[nH]c2=O)c(=O)[nH]1	3	6
COC(=O)c1cnc(Nc2nc(C(C)N)cs2)nc1C(F)(F)F (centres undefined)	-4	-10
c1ccc(-n2cnnc2SCc2nnc(-c3ccco3)o2)cc1	4	4
CCCNC(=O)C(NC(=O)c1ccccc1C)C1CCN(C(=O)Cc2ccccc2)CC1 (centres undefined)	20	23
Cc1cnc(C(=O)Nc2cc(-c3ccc(F)cc3F)no2)cn1	-4	-5
CN(c1ccccc1)c1nnc(C(C)(C)C)c(=O)[nH]1	5	1
O=c1c2cnn(C3CCS(=O)(=O)C3)c2ncn1Cc1ccc(Cl)c(Cl)c1 (centres undefined)	0	-5

A draw from above in order of heavy-atom count, high to low.
SMILES	NPYLR7 agonist	NPYLR7 agonist max-min
CC(=O)c1cccc(NC(=O)N2CCc3ccccc3C2c2ccccc2Cl)c1 (centres undefined)	-3	3
O=c1c2cnn(C3CCS(=O)(=O)C3)c2ncn1Cc1ccc(Cl)c(Cl)c1 (centres undefined)	0	-5
CC(C)CN(C1CCS(=O)(=O)C1)S(=O)(=O)c1cn(C)c(=O)n(C)c1=O (centres undefined)	2	0

(continued)
SMILES	NPYLR7 agonist	NPYLR7 agonist max-min
COc1ccc(CN2CC(C)(C)Oc3ncccc3C2=O)cc1	-2	-2
N#Cc1cccc(OC2CC3CCC(C2)N3C(=O)c2ccc(CSc3nc4cc(Cl)ccc4o3)cc2)c1 (centres undefined)	22	8
COc1ccc(OC)c2sc(N(CCCN(C)C)C(=O)c3ccco3)nc12	3	1
C/C=C/c1ccc(OC)cc1	-18	-24
CCc1onc(C)c1C(=O)O	3	2
CCCCc1ccc(C(=O)Nc2nnc(SCC3CC3)s2)cc1	-3	4
Cc1nc(C(=O)Nc2cccc(COC3CCCCC3)c2)cs1	8	3
COc1ccc(Cc2nnc(SCC(=O)Nc3ccc(C)c(C)c3)[nH]c2=O)cc1	-5	-6
COc1ccc(C2=NN(c3nc(-c4ccccc4)c4ccccc4n3)C(c3ccccc3)C2)cc1 (centres undefined)	-13	-19
CCn1c(SCC(=O)N2CCCC2)nnc1-c1ccc(C(C)(C)C)cc1	5	-1
C=CCc1c(C)c(C#N)c2nc3ccccc3n2c1NC(C)C	2	4
COC1CCN(C(=O)Nc2cc(C(F)(F)F)cc(C(F)(F)F)c2)CC1	3	-5
Cc1cccnc1CC(C)NC(=O)c1cc(C(C)C)n2ncnc2n1 (centres undefined)	-3	-3
COc1cccc(/C(C)=C/C(=O)N2CCCC(CCC(N)=O)C2)c1 (centres undefined)	1	2
Cc1ccccc1-c1nc(OCC(C)C)nn1-c1cccc(NC(=O)C(C)C)c1	-6	-4
Cc1cn2c3c(=O)n(C)c(=O)n(C)c3nc2n1CCCN1CCN(c2ccccc2)CC1	-9	-12
COc1ccc(C(C)=O)cc1CN1C(=O)C(C)(C)ON=C1c1ncccc1C	2	-1
Cc1ccc(C(=O)NC(C(=O)NC2CC2)C2CCN(C(=O)NC(C)C)CC2)cc1 (centres undefined)	9	14
CCCc1nc(C)sc1C(=O)NC1CCC(C(C)(C)C)CC1 (centres undefined)	-10	-17

This is a subset. The share of hits here may be higher or lower than overall.
